Rango dissoc inh: prevents RanGTP from dissociating the Rango-importin beta complex; Biochemical FRET Rango-importin beta, RanGTP-induced dissociation; 340,000 compounds, 0.071% hits; Potency, µM (doses to about 46.1 µM), for the others: top-dose activity change, negative = inhibition; active means falling FRET ratio curve, often poorly fitted, with flat reads before Ran was added; inconclusive means other falling curves, or compound fluorescence or quenching; inactive means flat or rising ratio curve;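 also: potency is read from the fitted curve at half-maximal effect; % of control where 0% means no effect; nearly all actives have a fitted effect of over 45% in size; -100% = wells without RanGTP and RCC1; the record marks most hits as doubtful in a second field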
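Rango (0.1 uM)–importin beta (0.25 uM) complex; RanGTP-RCC1 trigger; 45 min RT; CFP/YFP FRET read.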
miR-21 FLuc: raises the signal of a miR-21 reporter; HeLa miR-21 FLuc reporter, luciferase, 48 h; Potency, µM (top dose mostly 38.3 µM), for inactives: at the highest dose reporter change, positive = more light; 340,000 tested, under 10 active; AID 2288; active = well fitted rising curve with a large enough effect; inconclusive = small, poorly fitted or top-dose-only effect; inactive = no such curve, though single readings can be large or run the other way;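 also: % of control where 0% means no effect; miR-21 action dims this reporter so a rising signal means less miR-21 action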
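HeLa cells endogenously expressing miR-21, stably carrying CMV-driven firefly luciferase with a downstream miR-21 binding site, 2000 cells/well. Titrations up to approximately 40 uM, 48 hours; luciferase luminescence read.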
GLA inh pH 4.5: inhibitors of human alpha-galactosidase A at pH 4.5 | 230,000 tested, under 10 active | purified enzyme, 4-MU-alpha-Gal fluorescence, pH 4.5 | activity change, negative = inhibition, % at 105 µM; inconclusive = small, poorly fitted or top-dose-only inhibition, or a rising curve; inactive = flat fitted curve, though single readings scatter; no compound was filed as active;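 also: 0% = full activity with enzyme and -100% = basal without enzyme; dose as in the result columns while the protocol names 77 µM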
Rango complex inh: prevents formation of the Rango-importin beta complex; Q14974; Rango CFP/YFP FRET sensor + importin beta, 45 min; Potency, µM (series often up to 92.2 µM), inactives show top-dose inhibition of complex formation; 340,000 compounds, 0.031% hits; AID 540263; active = rising FRET ratio curve, often small or poorly fitted; inconclusive = mostly compound fluorescence or quenching in the first reads; inactive = flat curves in all reads;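 also: potency is read from the fitted curve at half-maximal effect; 0% = DMSO wells and 100% = buffer wells lacking importin beta; nearly all actives have a fitted effect of over 15% in size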
Target sequence (Q14974 whole entry, looked up): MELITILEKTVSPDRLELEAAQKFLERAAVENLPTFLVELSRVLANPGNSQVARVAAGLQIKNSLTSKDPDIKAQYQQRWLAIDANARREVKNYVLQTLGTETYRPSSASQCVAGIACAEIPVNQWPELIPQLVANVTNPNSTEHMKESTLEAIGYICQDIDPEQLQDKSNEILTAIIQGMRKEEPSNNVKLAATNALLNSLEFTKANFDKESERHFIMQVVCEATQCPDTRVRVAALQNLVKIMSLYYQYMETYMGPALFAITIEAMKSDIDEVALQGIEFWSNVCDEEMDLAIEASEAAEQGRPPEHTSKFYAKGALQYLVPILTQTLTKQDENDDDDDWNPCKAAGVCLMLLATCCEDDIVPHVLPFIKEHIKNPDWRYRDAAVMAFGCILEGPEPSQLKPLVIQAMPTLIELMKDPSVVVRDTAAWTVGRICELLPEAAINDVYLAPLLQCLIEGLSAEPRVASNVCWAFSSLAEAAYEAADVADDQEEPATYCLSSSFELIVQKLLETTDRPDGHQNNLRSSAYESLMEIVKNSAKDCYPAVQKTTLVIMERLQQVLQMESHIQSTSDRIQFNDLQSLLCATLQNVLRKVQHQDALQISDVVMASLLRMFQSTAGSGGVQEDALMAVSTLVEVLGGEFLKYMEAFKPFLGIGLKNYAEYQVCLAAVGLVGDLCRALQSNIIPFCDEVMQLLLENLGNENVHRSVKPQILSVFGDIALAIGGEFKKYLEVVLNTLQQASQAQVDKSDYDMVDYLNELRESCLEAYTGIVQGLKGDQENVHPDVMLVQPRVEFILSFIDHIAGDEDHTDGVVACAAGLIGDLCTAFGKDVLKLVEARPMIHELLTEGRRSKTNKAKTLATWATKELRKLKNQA
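FRET biosensor Rango (snurportin 1 IBB between N-terminal EYFP and C-terminal Cerulean), 50 nM in PBS/1 mM DTT/0.02% Tween-20/0.1% BSA, preincubated 5 min RT with compound; 0.125 microM importin beta added, 45 min RT, CFP/YFP FRET ratio read.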
An asterisk follows results filed as active. A portion of the library. The share of hits here may be higher or lower than overall.

Results for CCCC[n+]1c(C)sc2ccc(C)cc21 ?
Rango dissoc inh: -4%; miR-21 FLuc: 1%; GLA inh pH 4.5: 5; Rango complex inh: -2.2%

What do the screens show for `CCOc1ccccc1NC(=O)CNC(=O)CNC(=O)Cc1ccccc1`?
Rango dissoc inh: 1%; miR-21 FLuc: -4%; Rango complex inh: -0.8%

Results for O=C(O)Cn1c(=O)c2c3c(sc2n(Cc2ccc(Cl)cc2Cl)c1=O)CCCC3 ?
Rango dissoc inh: -12%; miR-21 FLuc: -6%; Rango complex inh: 3.9%

Results for O=C([O-])c1ccccc1-[n+]1c(-c2ccccc2)cc(-c2ccccc2)cc1-c1ccccc1 ?
Rango dissoc inh: 0%; Rango complex inh: -0.3%

What do the screens show for `COc1ccc(C(=O)OCc2ccc(C)cc2)cc1S(=O)(=O)N1CCOCC1`?
Rango dissoc inh: inconclusive; Rango complex inh: -3.9%

Results for COc1ccc(N=Cc2nc(-c3ccco3)oc2O)cc1 ?
Rango dissoc inh: inconclusive; miR-21 FLuc: -22%; GLA inh pH 4.5: -1; Rango complex inh: inconclusive

What do the screens show for `NC(=O)C1CCN(C(=O)/C=C/c2ccco2)CC1`?
Rango dissoc inh: -14%; miR-21 FLuc: -5%; GLA inh pH 4.5: 4; Rango complex inh: -3.8%

What do the screens show for `Cc1c(Cl)cccc1NC(=S)NCCc1ccc(C(F)(F)F)cc1`?
Rango dissoc inh: 0%; miR-21 FLuc: 23%; GLA inh pH 4.5: -2; Rango complex inh: -2.7%

What do the screens show for `Cc1cccc(N2CCN(C(=O)c3ccc4ncsc4c3)CC2)c1C`?
Rango dissoc inh: 7%; miR-21 FLuc: -1%; GLA inh pH 4.5: -5; Rango complex inh: -1.1%

How did CC(C)Cn1c(=O)c(C(=O)N/N=C/c2cccc(F)c2)c(O)c2ccccc21 do in these assays?
Rango dissoc inh: 11%; miR-21 FLuc: -5%; GLA inh pH 4.5: -17; Rango complex inh: -3.9%

Results for COc1ccc(N2CCN(Cc3nc4ccccc4n3C)CC2)cc1 ?
Rango dissoc inh: -7%; miR-21 FLuc: -10%; GLA inh pH 4.5: 6; Rango complex inh: -1.6%

Results for COc1cc(OC)c(N(C)S(=O)(=O)c2cccc(C(=O)Nc3nc(C)cs3)c2)cc1Cl ?
Rango dissoc inh: 0%; Rango complex inh: -5.3%

Results for Cc1ccc2c(c1)N(CCCC(=O)NCc1cccnc1)C(=O)CO2 ?
Rango dissoc inh: -8%; miR-21 FLuc: -13%; GLA inh pH 4.5: 9; Rango complex inh: -1.2%

How did O=[N+]([O-])c1ccc(Cl)cc1N/N=C/c1ccncc1 do in these assays?
Rango dissoc inh: 1%; miR-21 FLuc: 2%; Rango complex inh: 1.3%

What do the screens show for `COC(=O)N1CCc2c(sc(NC(=O)C3=COCCO3)c2C#N)C1`?
Rango dissoc inh: -5%; Rango complex inh: -0.1%

What do the screens show for `Cc1cccc(C)c1NC(=O)CNC(=O)c1ccc2c(c1)NC(=O)CS2`?
Rango dissoc inh: -8%; Rango complex inh: -0.4%

What do the screens show for `NS(=O)(=O)c1ccc(CCNCC#Cc2ccccc2)cc1`?
Rango dissoc inh: -2%; miR-21 FLuc: 1%; Rango complex inh: 0.0%

How did O=C(CCCNC(=O)c1ccc(Cl)cc1)Nc1cccc(S(=O)(=O)N2CCCCC2)c1 do in these assays?
Rango dissoc inh: 22%; Rango complex inh: 3.1%

How did CCN(C[C@H]1N[C@@](CC)(C(=O)OC)[C@H]2C(=O)N(Cc3ccccc3)C(=O)[C@@H]12)S(=O)(=O)c1ccccc1 do in these assays?
Rango dissoc inh: 24%; Rango complex inh: 1.2%

Results for O=C(NC1CCCCC1)N1CCC(c2nc(-c3ccc(S(=O)(=O)N4CCCC4)cc3)no2)CC1 ?
Rango dissoc inh: inconclusive; miR-21 FLuc: 0%; GLA inh pH 4.5: 2; Rango complex inh: 1.5%

Three consecutive compounds from above:
How did O=C(CCCNC(=O)c1ccc(Cl)cc1)Nc1cccc(S(=O)(=O)N2CCCCC2)c1 do in these assays?
Rango dissoc inh: 22%; Rango complex inh: 3.1%

How did CCN(C[C@H]1N[C@@](CC)(C(=O)OC)[C@H]2C(=O)N(Cc3ccccc3)C(=O)[C@@H]12)S(=O)(=O)c1ccccc1 do in these assays?
Rango dissoc inh: 24%; Rango complex inh: 1.2%

Results for O=C(NC1CCCCC1)N1CCC(c2nc(-c3ccc(S(=O)(=O)N4CCCC4)cc3)no2)CC1 ?
Rango dissoc inh: inconclusive; miR-21 FLuc: 0%; GLA inh pH 4.5: 2; Rango complex inh: 1.5%

The list continues.
How did Cc1ccc2cc(CCNC(=O)C(C)(C)C)c(=O)[nH]c2c1 do in these assays?
Rango dissoc inh: 11%; miR-21 FLuc: -1%; GLA inh pH 4.5: 6; Rango complex inh: -2.9%

What do the screens show for `CCO[C@@H]1OC(C(=O)N2CCN(C)CC2)=C[C@H](c2ccc(C(F)(F)F)cc2)[C@H]1CCCO`?
Rango dissoc inh: 5%; miR-21 FLuc: -3%; GLA inh pH 4.5: 0; Rango complex inh: -4.4%

How did O=C(CCCC(=O)N(CC(=O)NC1CCCC1)c1cccc(F)c1)Nc1ccccn1 do in these assays?
Rango dissoc inh: -24%; miR-21 FLuc: 1%; Rango complex inh: -2.7%

What do the screens show for `COc1ccc(NC(=S)Nc2cccc(Cl)c2Cl)cc1OC`?
Rango dissoc inh: 0%; miR-21 FLuc: 2%; GLA inh pH 4.5: 2; Rango complex inh: -0.3%

Results for Cc1cc(NC(=O)Cn2c(=O)n(CCCCC(=O)NC3CCN(Cc4ccccc4)CC3)c(=O)c3ccccc32)n[nH]1 ?
miR-21 FLuc: 1%; GLA inh pH 4.5: 6

How did CCNS(=O)(=O)c1ccc(NC(=O)c2ccc(Cn3cc(Br)cn3)o2)cc1 do in these assays?
Rango dissoc inh: 7%; miR-21 FLuc: 5%; GLA inh pH 4.5: 6; Rango complex inh: 3.0%

Results for Cc1[nH]c(=O)[nH]c(=O)c1S(=O)(=O)N1CCN(c2ccccc2F)CC1 ?
Rango dissoc inh: -15%; miR-21 FLuc: 0%; GLA inh pH 4.5: -8; Rango complex inh: 1.9%

Results for COC(=O)c1ccccc1NC(=O)c1ccc2c(c1)C(=O)N(Cc1ccco1)C2=O ?
Rango dissoc inh: -7%; Rango complex inh: -2.1%

How did c1cc(OCCCN2CCCCC2)ccc1CN1CCCCC1 do in these assays?
Rango dissoc inh: 9%; miR-21 FLuc: -6%; Rango complex inh: -3.0%

Results for CCc1noc(C)c1C(=O)OCC(=O)c1ccc(NC(C)=O)cc1F ?
Rango dissoc inh: 5%; Rango complex inh: -1.3%

What do the screens show for `CCSC1=C(C#N)C2(CCCC2)C(C#N)=C(N)N1`?
Rango dissoc inh: 7%; miR-21 FLuc: -10%; GLA inh pH 4.5: -4; Rango complex inh: -7.1%

How did O=S(=O)(c1ccccc1)N1CCN(c2cc(-c3ccccc3)nc3ncnn23)CC1 do in these assays?
Rango dissoc inh: 0%; miR-21 FLuc: 13%; GLA inh pH 4.5: -21; Rango complex inh: 7.8%

What do the screens show for `Nc1ccc(N)c(C(=O)O)c1`?
Rango dissoc inh: 0%; miR-21 FLuc: 1%; GLA inh pH 4.5: -6; Rango complex inh: inconclusive

Results for CC1CCN(C(=O)CSc2nnc(CN3CCOCC3)n2-c2ccccc2)CC1 ?
Rango dissoc inh: 0%; miR-21 FLuc: 0%; GLA inh pH 4.5: 4; Rango complex inh: 9.7%

What do the screens show for `COc1ccc(CNC(=O)CC2C(=O)NCCN2C2Cc3ccccc3C2)cc1` (stereo not drawn)?
Rango dissoc inh: -18%; miR-21 FLuc: -4%; Rango complex inh: 0.1%

Results for OCCn1c(-c2ccccc2)csc1=Nc1ccccc1 ?
Rango dissoc inh: 3%; miR-21 FLuc: -20%; GLA inh pH 4.5: -11; Rango complex inh: 2.9%

How did COc1ccc(NC(=O)Nc2ccc3oc(C)nc3c2)cc1 do in these assays?
Rango dissoc inh: 2%; miR-21 FLuc: -57%; GLA inh pH 4.5: 3; Rango complex inh: 13%

What do the screens show for `O=C(Nc1c2c(nn1-c1ccccc1)CS(=O)(=O)C2)c1ccco1`?
Rango dissoc inh: 21%; miR-21 FLuc: -1%; Rango complex inh: 0.3%

How did Cc1ccc(C(=O)Nc2ccc3nc(C)sc3c2)s1 do in these assays?
Rango dissoc inh: 13%; miR-21 FLuc: -58%; GLA inh pH 4.5: -3; Rango complex inh: -2.6%

Results for CC(C)(C)C(=O)Nc1ccccc1C(=O)NCCC(=O)Nc1ccccc1 ?
Rango dissoc inh: 2%; Rango complex inh: -0.2%

What do the screens show for `Cc1ccc2c(nc3s/c(=C/c4cccs4)c(=O)n32)c1C`?
Rango dissoc inh: -5%; miR-21 FLuc: -26%; GLA inh pH 4.5: 5; Rango complex inh: 1.8%

What do the screens show for `COc1ccc(N2CCN(C(=O)c3c(C)nn(-c4ccccc4)c3C)CC2)cc1`?
Rango dissoc inh: 1%; miR-21 FLuc: 6%; GLA inh pH 4.5: -1; Rango complex inh: -1.9%

How did COc1ccc(NC(=O)CSCc2cc(=O)n3nc(C4CC4)sc3n2)cc1 do in these assays?
Rango dissoc inh: -18%; miR-21 FLuc: 4%; Rango complex inh: -1.0%

How did CN(CCc1ccccc1)C(=O)c1ccc(NC(=O)Cc2cccc(NC(=O)C3CCN(S(=O)(=O)c4cccc([N+](=O)[O-])c4)CC3)c2)cc1 do in these assays?
Rango dissoc inh: 0%; Rango complex inh: -0.2%

What do the screens show for `O=S(=O)(c1ccc(F)cc1)N1CCN(C(=S)NC2CCCC2)CC1`?
Rango dissoc inh: 1%; miR-21 FLuc: -4%; GLA inh pH 4.5: 11; Rango complex inh: -1.8%

What do the screens show for `CCCCOc1ccc(C(=O)NCCc2cccs2)cc1`?
miR-21 FLuc: -49%; GLA inh pH 4.5: 6

What do the screens show for `CS(=O)(=O)n1nc(OC(=O)c2cccs2)cc1N`?
Rango dissoc inh: -11%; miR-21 FLuc: -1%; GLA inh pH 4.5: 3; Rango complex inh: -1.0%

What do the screens show for `COc1cc(NS(=O)(=O)c2ccc3ccccc3c2)c2ncccc2c1`?
Rango dissoc inh: 0%; miR-21 FLuc: 29%; Rango complex inh: -2.7%

What do the screens show for `COC(=O)c1scc2c(Oc3ccccc3)cc(C(F)(F)F)nc12`?
Rango dissoc inh: -20%; miR-21 FLuc: -4%; GLA inh pH 4.5: 8; Rango complex inh: inconclusive

What do the screens show for `O=C(CN(Cc1ccco1)C(=O)CNS(=O)(=O)c1ccccc1)NCc1ccc(F)cc1`?
Rango dissoc inh: -10%; miR-21 FLuc: -27%; GLA inh pH 4.5: 0; Rango complex inh: -3.8%

What do the screens show for `COc1ccc(CSCC(=O)N/N=C/c2ccc(OCC(=O)N3CCCCC3)cc2)cc1`?
Rango dissoc inh: -1%; miR-21 FLuc: -3%; GLA inh pH 4.5: -6; Rango complex inh: 2.3%

What do the screens show for `CCOc1ccc(N(C(=O)C2CCCO2)C2C=CS(=O)(=O)C2)cc1` (stereo not drawn)?
Rango dissoc inh: -1%; miR-21 FLuc: -4%; GLA inh pH 4.5: -16; Rango complex inh: 1.4%

Results for c1ccc(CN2CCN(c3ncnc4nc[nH]c34)CC2)cc1 ?
Rango dissoc inh: inconclusive; miR-21 FLuc: -7%; GLA inh pH 4.5: 1; Rango complex inh: 1.0%

Results for Cc1cc(=O)oc2cc(OCC(=O)OCC(=O)NCc3ccc4c(c3)OCO4)ccc12 ?
Rango dissoc inh: 22%; miR-21 FLuc: 1%; GLA inh pH 4.5: 14; Rango complex inh: 0.9%

Results for CN(c1ccc(OCC(=O)NC2=NCCS2)cc1)S(=O)(=O)c1ccc(F)cc1 ?
Rango dissoc inh: 8%; miR-21 FLuc: -1%; GLA inh pH 4.5: -5; Rango complex inh: 1.2%

What do the screens show for `CC(=O)C1=C(C)Nc2cc(C(F)(F)F)ccc2S1`?
Rango dissoc inh: 22%; miR-21 FLuc: -5%; GLA inh pH 4.5: 2; Rango complex inh: -5.0%

How did O=C(C=C=Nc1ccccc1)C(=O)N=C=Cc1ccccc1 do in these assays?
Rango dissoc inh: 22%; miR-21 FLuc: inconclusive; GLA inh pH 4.5: 0; Rango complex inh: -1.8%

Results for CCn1c2ccccc2c2cc(NC(=O)CNCc3ccccc3OC)ccc21 ?
Rango dissoc inh: -15%; miR-21 FLuc: 24%; Rango complex inh: -0.3%

High-throughput results (PubChem BioAssay)
